FPR binder: binds the human formylpeptide receptor FPR. FPR-expressing cells, fluorescent ligand binding, flow cytometry. inhibition, %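 (tested at 6.7 µM)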. actives 0.74% (n = 24,000);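 also: 0% = buffer wells and 100% = receptor blocker peptide wells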
Target sequence (P21462 whole entry, looked up): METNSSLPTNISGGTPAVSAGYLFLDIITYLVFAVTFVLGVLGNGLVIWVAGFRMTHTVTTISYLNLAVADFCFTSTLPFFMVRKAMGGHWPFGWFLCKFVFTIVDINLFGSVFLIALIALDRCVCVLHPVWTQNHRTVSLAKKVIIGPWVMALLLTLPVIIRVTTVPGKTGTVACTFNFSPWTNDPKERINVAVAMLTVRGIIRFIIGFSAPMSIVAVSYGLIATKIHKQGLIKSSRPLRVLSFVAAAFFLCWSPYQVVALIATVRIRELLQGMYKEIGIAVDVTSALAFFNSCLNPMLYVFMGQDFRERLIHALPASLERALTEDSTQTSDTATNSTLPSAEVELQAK
FPRL1 ligand: ligands of human FPRL1, also counter-screen for FPR ligands; FPRL1-expressing cells, fluorescent ligand binding inhibition, flow cytometry; inhibition, %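 (tested at 6.7 µM)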; actives 0.3% (n = 24,000);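 also: 0% = buffer alone and 100% = receptor blocker peptide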
Target sequence (P25090 whole entry, looked up): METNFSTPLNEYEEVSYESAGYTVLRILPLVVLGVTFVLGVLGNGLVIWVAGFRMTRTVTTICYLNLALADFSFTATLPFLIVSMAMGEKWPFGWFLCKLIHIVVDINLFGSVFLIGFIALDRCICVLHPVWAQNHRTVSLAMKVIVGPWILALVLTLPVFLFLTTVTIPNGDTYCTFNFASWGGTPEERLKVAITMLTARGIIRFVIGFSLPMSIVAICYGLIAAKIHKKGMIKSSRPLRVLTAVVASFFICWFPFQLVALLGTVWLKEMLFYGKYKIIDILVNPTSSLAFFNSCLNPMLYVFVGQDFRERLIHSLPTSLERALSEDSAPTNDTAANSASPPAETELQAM
VCAM-1 down imaging: inhibitors of TNFa-induced VCAM-1 surface display, imaging, high-content imaging, pooled HUVEC, TNFa stimulus (AID 456); HUVEC TNFa-induced VCAM-1 surface expression, immunofluorescence imaging; numbers were filed only for top-ranked candidate wells; actives 0.2% (n = 10,000); one-dose inhibition, % at 5 µM; IC50 in µM for titrated hits;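 active = top tenth filtered wells with inhibition above zero that passed visual or statistical confirmation; inactive = the rest, including hits rejected on review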;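 also: 0% = stimulated vehicle wells and 100% = unstimulated cells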
VCAM-1 up imaging: enhancers of VCAM-1 display on endothelial cells, imaging, high-content imaging, pooled HUVEC, TNFa stimulus (AID 457); Pooled HUVEC, TNFa-induced VCAM-1 immunofluorescence imaging; hits of this screen are not shown here; calls only; actives 0.2% (n = 10,000);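 active = a top-ranked rise in VCAM-1 staining upheld on image or statistical review; inactive = the rest, including candidates rejected on review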;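 also: compounds tested at 5 µM in the well; cells exposed to compound for 24 hours before fixing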
VCAM-1 inhibition: suppression of endothelial VCAM-1 upregulation – cell-based, plate reader, pooled HUVEC, TNFa stimulus (AID 454); actives 0.2% (n = 10,000); inhibition, % at 5 µM; HUVEC TNFa-induced VCAM-1 surface immunofluorescence, plate reader; numbers were filed only for top-ranked candidate wells;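 active = compound among top-ranked inhibitors of TNF-induced VCAM-1 adhesion protein staining, with the hit upheld by image or statistical review; inactive = the rest, including hits rejected on review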;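 also: 0% = TNFa with vehicle and 100% = cells without TNFa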
Active calls of the source: *; i = inactive; . = not tested or not shown.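 The calls were made as follows, unless noted: active = mean above 30%; inconclusive = self-fluorescent; inactive = the rest.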

SMILES	FPR binder	FPRL1 ligand	VCAM-1 down imaging	VCAM-1 up imaging	VCAM-1 inhibition
O=C1CN(C(=O)COC(=O)c2ccccc2NC(=O)c2ccco2)c2ccccc2N1	-12	-3	i	i	i
CCOC(=O)c1cn(CC(=O)Nc2ccc(C(C)C)cc2)nn1	0	2	.	.	.
COc1ccc(OC)c(C2/C(=C(/O)c3ccccc3)C(=O)C(=O)N2Cc2ccco2)c1 (stereo unspecified)	92*	-15	.	.	.
Cc1ccccc1NC(=O)C1C2CCC(O2)C1C(=O)O (stereo unspecified)	-15	1	.	.	.
O=c1cc(N2CCc3ccccc32)[nH]c(=O)n1Cc1ccc(F)cc1	43*	-9	.	.	.
Cc1ccc2nc(N3CCN(C=O)CC3)nc(-c3ccccc3)c2c1	-9	-1	.	.	.
Cc1ccc(C(C)C)c(OCCCN2CC(C)OC(C)C2)c1 (stereo unspecified)	-4	-1	i	i	i
CCOC(=O)c1c(NC(=O)CN2CCCCC2)sc2c1CCCC2O (stereo unspecified)	-6	-5	.	.	.
C=CCc1cccc(C2Nc3ccccc3C(=O)N2O)c1O (stereo unspecified)	-4	0	.	.	.
CCOC(=O)c1cc2sccc2n1CC(=O)Nc1ccc(OC)cc1OC	1	-7	i	i	i
N#Cc1c(N)oc(-c2cccs2)c1-c1cccs1	20	2	i	i	i
COc1cccc(C2CC(c3ccc(Cl)cc3)n3nc(N)nc3N2)c1 (stereo unspecified)	3	4	.	.	.
COc1cc(-c2nc(-c3ccc(Br)o3)no2)cc(OC)c1OC	-1	5	.	.	.
Cc1ccc(S(=O)(=O)NCCC(=O)N2CCN(Cc3ccccc3)CC2)cc1	0	1	.	.	.
O=C(C1CCCN1S(=O)(=O)c1cccc2cccnc12)N1CCN(c2ccccc2)CC1 (stereo unspecified)	-3	4	.	.	.
Cc1ccc(NC(=O)C2CCN(S(=O)(=O)c3cccc4cccnc34)CC2)nc1	-3	-8	.	.	.
O=C(CSc1nc2c(c(=O)n1-c1ccc(Br)cc1)SCC2)NCC1CCCO1 (stereo unspecified)	-2	8	.	.	.
O=C(c1cnc(N2CCN(c3ncccn3)CC2)c2ccccc12)N1CCN(c2ncccn2)CC1	2	-2	.	.	.
Cc1ccc(NC(=O)C2CCCNC2=O)nc1 (stereo unspecified)	-6	-2	i	i	i
Cc1ccc(-c2ccc(CCC(=O)O)n2C(C)C)cc1	13	13	.	.	.
O=C(CNS(=O)(=O)c1cccs1)N1CCCC1	3	-2	.	.	.
CCOC(=O)N1CCN(C(=O)CN2C(=O)COc3ccc(C(C)(C)C)cc32)CC1	-9	4	.	.	.
O=C(COc1ccccc1Cl)NCc1ccco1	-11	-9	i	i	i
CCC(=O)NCc1nc2ccccc2n1Cc1ccccc1F	2	-1	.	.	.
Cc1ccc(-c2nc3ncccn3c2Nc2ccc3c(c2)OCO3)o1	2	3	.	.	.
SMILES	FPR binder	FPRL1 ligand	VCAM-1 down imaging	VCAM-1 up imaging	VCAM-1 inhibition
COc1ccc(CC(CC(=O)O)C(=O)Nc2ccc(OC)cc2)cc1 (stereo unspecified)	8	-1	.	.	.
COc1ccc(NC(=O)c2cc3n(n2)C(C(F)(F)F)CC(c2ccc4c(c2)OCO4)N3)cc1OC (stereo unspecified)	-3	2	.	.	.
O=C1NC(c2ccco2)Nc2sc3c(c21)CCN(Cc1ccccc1)C3 (stereo unspecified)	-10	-4	.	.	.
Clc1ccccc1C1SCC2Nc3ccccc3CN21 (stereo unspecified)	3	2	.	.	.
CCCCCn1c(=O)[nH]c2cc(C(=O)NCCCN(CC)CC)ccc2c1=O	0	4	.	.	.
O=C1NCC(O)=C1C=NCCCO	-6	15	.	.	.
CCOC(=O)N1CCN(C(=O)CSc2nnc(-c3ccc(C)c(C)c3)o2)CC1	2	-5	.	.	.
O=C(c1ccc2c(c1)OCO2)N(CC1CCCO1)C1(C(=O)NC2CCCC2)CCCCC1 (stereo unspecified)	4	5	.	.	.
CCCN1C(=O)c2cc(C(=O)NCc3ccc(OC)cc3)ccc2C1O (stereo unspecified)	-3	-2	.	.	.
Cc1ccc(-c2[nH]nc3c2C(c2cccnc2)C(C#N)=C(N)O3)cc1 (stereo unspecified)	2	7	.	.	.
COC(=O)c1ccc(NC(=O)CCNS(=O)(=O)c2cccc3nonc23)cc1	3	-9	.	.	.
c1ccc2c(c1)nc(NCCN1CCOCC1)c1nncn12	-1	-2	i	i	i
O=C(CCCNS(=O)(=O)c1ccccc1)NCc1ccco1	-3	-4	i	i	i
COc1ccccc1N1CCN(C(=O)C2CCCO2)CC1 (stereo unspecified)	-2	-5	i	i	i
Cc1oc(-c2ccc(Cl)cc2)nc1CN1CCCC(C(=O)NCc2ccccn2)C1 (stereo unspecified)	-3	-5	.	.	.
Cc1ccc(CS(=O)(=O)CCC(=O)NCCCN2CCCC2=O)cc1	-2	3	.	.	.
Cc1ccc(-n2ncc3c(=O)n(CC(=O)N4CCCCCC4)cnc32)cc1	-7	1	.	.	.
Cn1c2ccccc2c2c(C(=O)N3CCN(c4ccc(F)cc4)CC3)cn(C3CCCC3)c(=O)c21	-3	-2	.	.	.
N=c1c(C(=O)NCc2ccccc2)cc2c(=O)n3ccccc3nc2n1Cc1ccco1	-5	-2	i	i	i
CCOC(=O)Cc1nnc(NC(=O)c2ncn[nH]2)s1	-2	3	i	i	i
CC(Oc1ccccc1)C(=O)N1CCCc2ccccc21 (stereo unspecified)	-1	-1	i	i	i
Cc1c(C)[n+](=O)c2c(n1[O-])CCCCC2	-3	0	i	i	i
Cc1cc(NC(=O)CCC(=O)N(CCc2ccccc2)C(C(=O)NC2CCCC2)c2ccco2)no1 (stereo unspecified)	18	-3	i	i	i
COc1cc(C2=NOC(C(=O)N3CCCc4ccccc43)C2)cc(OC)c1OC (stereo unspecified)	-3	1	.	.	.
Cc1nc2nc(C)c(CCC(=O)N3CCN(c4ccccn4)CC3)c(C)n2n1	-6	-2	.	.	.

5 successive compounds already listed, for reference:
SMILES	FPR binder	FPRL1 ligand	VCAM-1 down imaging	VCAM-1 up imaging	VCAM-1 inhibition
CC(Oc1ccccc1)C(=O)N1CCCc2ccccc21 (stereo unspecified)	-1	-1	i	i	i
Cc1c(C)[n+](=O)c2c(n1[O-])CCCCC2	-3	0	i	i	i
Cc1cc(NC(=O)CCC(=O)N(CCc2ccccc2)C(C(=O)NC2CCCC2)c2ccco2)no1 (stereo unspecified)	18	-3	i	i	i
COc1cc(C2=NOC(C(=O)N3CCCc4ccccc43)C2)cc(OC)c1OC (stereo unspecified)	-3	1	.	.	.
Cc1nc2nc(C)c(CCC(=O)N3CCN(c4ccccn4)CC3)c(C)n2n1	-6	-2	.	.	.

A draw from above in order of molecular weight, highest first:
SMILES	FPR binder	FPRL1 ligand	VCAM-1 down imaging	VCAM-1 up imaging	VCAM-1 inhibition
Cc1cc(NC(=O)CCC(=O)N(CCc2ccccc2)C(C(=O)NC2CCCC2)c2ccco2)no1 (stereo unspecified)	18	-3	i	i	i
N=c1c(C(=O)NCc2ccccc2)cc2c(=O)n3ccccc3nc2n1Cc1ccco1	-5	-2	i	i	i
CCOC(=O)c1cc2sccc2n1CC(=O)Nc1ccc(OC)cc1OC	1	-7	i	i	i
O=C1NCC(O)=C1C=NCCCO	-6	15	.	.	.

Continuation.
SMILES	FPR binder	FPRL1 ligand	VCAM-1 down imaging	VCAM-1 up imaging	VCAM-1 inhibition
COc1ccc(C2=NOC(C(=O)N3CCN(c4ccccc4OC)CC3)C2)cc1 (stereo unspecified)	3	-4	.	.	.
Cc1cc(C(=O)NCc2cccs2)n(-c2ccccc2)n1	3	8	.	.	.
COc1cc(OC)cc(C(=O)Nn2cc(C(=O)N3CCN(C)CC3)c3ccccc3c2=O)c1	3	-3	.	.	.
O=C(NCCS(=O)CCNC(=O)C(F)(F)F)C(F)(F)F	0	-3	.	.	.
O=C(NCC(c1cccnc1)N1CCN(c2ccccc2F)CC1)C1CCCCC1 (stereo unspecified)	-5	-6	.	.	.
O=C1CC(c2ccc(S(=O)(=O)NCc3ccncc3)cc2)CN1 (stereo unspecified)	0	-2	.	.	.
CCCC(=O)Nc1nnc(CC(=O)N2CCCC2)s1	-7	1	i	i	i
CC(C)CC(=O)N(c1ccc(F)cc1)C1C=CS(=O)(=O)C1 (stereo unspecified)	-8	2	.	.	.
CCCNC(=O)c1c[nH]c2ccc(S(=O)(=O)N(C)c3ccc(OCC)cc3)cc2c1=O	12	2	.	.	.
CCCN(CCC)CCCNC(=O)CC1Nc2ccccc2NC1=O (stereo unspecified)	-3	-8	.	.	.
O=S(=O)(c1ccccc1C(F)(F)F)N1CCOCC1	4	5	.	.	.
CCC1CCCCN1C(=O)C1CC(c2cc(Cl)c(OC)cc2OC)=NO1 (stereo unspecified)	-1	5	i	i	i
O=C(c1cccn2c(=O)c3ccc(Cl)cc3nc12)N1CCN(Cc2ccc3c(c2)OCO3)CC1	-1	5	.	.	.
CCCCN(C)CCCNC(=O)Cn1c(=O)sc2ccccc21	-4	-5	.	.	.
Cc1ccc(O)c(NC(=O)COc2cc(C)ccc2C)c1	-12	5	i	i	i
CCC(=O)NCCCOc1ccccc1	3	7	.	.	.
COc1ccccc1Nc1nc(N)nc(CSc2nccc(C)n2)n1	6	1	i	i	i
COc1ccc(Cn2c(N)c(C#N)c3nc4ccccc4nc32)cc1OC	-3	-5	i	i	i
Nc1nc2ccc(OC(F)(F)F)cc2s1	5	-2	i	i	i
COc1ccc(OC)c(NC(=O)C2CCCN(S(=O)(=O)c3cccc4nsnc34)C2)c1 (stereo unspecified)	4	-4	.	.	.
Cc1cccc(C2CC(c3ccccc3)Nc3ncnn32)c1 (stereo unspecified)	-14	3	.	.	.
CC(=O)C1C(c2cccc(Oc3ccccc3)c2)NC(=O)NC1(O)C(F)(F)F (stereo unspecified)	4	0	.	.	.
CCn1c(SCC(=O)N2CCOCC2)nc(O)cc1=O	11	5	.	.	.
C=CCn1c(SCC(=O)NC2CCCCC2)nnc1-c1sc(N)nc1C	5	2	i	i	i
CN(C)CCCN1c2ccccc2Sc2ccc(C(F)(F)F)cc21	-2	-1	i	i	i
SMILES	FPR binder	FPRL1 ligand	VCAM-1 down imaging	VCAM-1 up imaging	VCAM-1 inhibition
O=C(Cn1c(=O)n(Cc2ccco2)c(=O)c2cc(Cl)ccc21)NCC1CCCO1 (stereo unspecified)	5	5	.	.	.
CCCCC(=O)Nc1cc(C)c2c(=O)oc3ccccc3c2n1	-4	-14	.	.	.
CC1(C)CC(=O)C(C=NC(CCC(N)=O)C(=O)O)=C(O)C1 (stereo unspecified)	2	-2	i	i	i
O=C(C1CC1)N1CCc2cc(Br)cc(S(=O)(=O)NCCCN3CCCC3)c21	-6	-6	.	.	.
CCOc1ccccc1NC(=O)c1cccc2c1C(=O)N(CCOC)C2	0	-10	.	.	.
Cc1cc(=O)[nH]c(=S)n1-c1ccccc1	-2	2	i	i	i

Screening data (PubChem BioAssay)

Some of the compounds tested. The share of hits here may be higher or lower than overall.
